Compound activity (PubChem BioAssay)
OX1R antag: OX1R (HCRTR1) antagonists, primary screen, fluorescence, CHO/OX1R cells, Fluo-8 calcium, orexin A; AID 434989, 2010; Orexin/Hypocretin receptor type 1 (Homo sapiens), O43613; Fluo-8 calcium fluorescence; inhibition, % at 5 µM; 0.43% of 330,000 active;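 active = inhibition above its plate's threshold, mean inhibition of all tested compounds on the plate plus 3 SD, cut at about 37% in these data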;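 also: 0% = orexin A challenge wells and 100% = SB-334867-A antagonist wells; not every result past the cut was called active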
Target sequence (O43613 whole entry, looked up): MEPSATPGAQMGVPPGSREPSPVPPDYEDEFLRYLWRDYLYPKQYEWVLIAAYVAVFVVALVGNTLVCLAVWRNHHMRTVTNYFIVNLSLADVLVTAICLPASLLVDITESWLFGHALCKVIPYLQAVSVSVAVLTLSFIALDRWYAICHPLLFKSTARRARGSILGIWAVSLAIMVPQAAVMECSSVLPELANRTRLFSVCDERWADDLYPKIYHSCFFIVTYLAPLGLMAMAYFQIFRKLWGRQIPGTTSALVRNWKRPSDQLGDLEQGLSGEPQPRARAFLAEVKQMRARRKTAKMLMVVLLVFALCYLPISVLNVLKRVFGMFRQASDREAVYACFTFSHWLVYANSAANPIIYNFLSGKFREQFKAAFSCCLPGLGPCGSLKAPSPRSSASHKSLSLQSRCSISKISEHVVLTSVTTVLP
Numbers without * were called inactive.

cpd | molecule | OX1R antag
1 | CCO[C@H]1OC(C(=O)O)=C[C@@H](C2CCCCC2)[C@@H]1CCCO | 2
2 | CC12COC3(C(=O)N4CCN(c5ccccn5)CC4)CC1CCC32C (centres undefined) | -14
3 | COc1ccccc1NC(=O)CSc1nn2c(=O)c(C)nnc2s1 | -10
4 | Cc1cccc(C)c1NC(=O)C1(N(C(=O)c2ccccn2)c2ccc(O)cc2)CCCCC1 | -6
5 | COc1ccc(C(=O)NNC(=O)C2=NN(c3ccccc3)C(=O)CC2)cc1 | -8
6 | CC(=O)C1=C(O)C(=O)N(CCC(=O)O)C1c1ccccc1[N+](=O)[O-] (centres undefined) | -12
7 | CCCc1[nH]nc2c1C(CCC)C(C#N)=C(N)O2 (centres undefined) | -9
8 | O=C1CN(C(=O)CSc2nnc3ccccn23)c2ccccc2N1 | -12
9 | CC(C)(C)NC(=O)c1ccccc1-c1nc2ccccc2s1 | -31
10 | COc1ccc(-c2nnc(N(C)C(=O)C3CCCO3)s2)cc1 (centres undefined) | -12
11 | CC1(C(=O)NC2CCCCC2)CCC(=O)N1Cc1cccnc1 (centres undefined) | -11
12 | CCN(CC)CC(=O)Nc1nc(-c2ccc(Cl)cc2)cs1 | -13
13 | Cc1nnc(SCCCn2c(N3CCN(c4ccccc4)CC3)nc3c2c(=O)[nH]c(=O)n3C)s1 | -20
14 | CCOc1ccc(NC(=O)CSc2nc3nc4c(cc3c(=O)n2CC)COC(C)(C)C4)cc1 | -47
15 | CCOc1ccc(/C(O)=C2/C(=O)C(=O)N(c3ncccn3)C2c2ccc(C)cc2)cc1 (centres undefined) | -23

The listing continues:
cpd | molecule | OX1R antag
16 | CCCCNC(=O)CCn1ccc2cc(S(=O)(=O)N3CCCC3)ccc21 | -15
17 | COc1cccc(NC(=O)c2ccc(OC(F)(F)F)cc2)c1 | -21
18 | Cc1cc(C(=O)N2CCN(c3ccc(F)cc3)CC2)on1 | -7
19 | Cc1cccc(C(=O)N2CCN=C2SCc2ccc([N+](=O)[O-])cc2)c1 | -9
20 | CC1=CC(C)(C)N2C(=O)C3(N=C(N)NC(Nc4ccccc4)=N3)c3cc(C)cc1c32 (centres undefined) | -7
21 | COc1ccc(S(=O)(=O)N2CCCCC2)cc1NC(=O)CSc1nccn1C | -24
22 | Cn1c(NCCCO)nc2c(c1=O)C1(CCCCC1)Cc1ccccc1-2 | -8
23 | CSCCC(=O)N1CCCC(CNC(=O)c2ccccc2Cl)C1 (centres undefined) | -7
24 | CCCN(CCC)CCNC(=O)C1c2ccccc2C(=O)N2CCc3ccccc3C12 (centres undefined) | -16
25 | Cc1ccc(O)c(C(=O)c2coc(=N)c(C(=O)NC(C)C)c2)c1 | -24
26 | O=c1cc(O)nc(SCc2ccc(Cl)cc2)[nH]1 | -38
27 | c1ccc(N2CCN(c3nc4ccccc4n4nnnc34)CC2)cc1 | -20
28 | COc1ccc(OCC(=O)N/N=C(\C)c2cccs2)cc1 | -10
29 | O=C(NCC(c1ccco1)N1CCOCC1)c1ccc(F)c(F)c1 (centres undefined) | -6
30 | COC(=O)c1cc(-c2cccs2)[nH]n1 | -5

Further entries:
cpd | molecule | OX1R antag
31 | COC(=O)c1ccc(NC(=O)c2cccc(OC)c2)cc1 | -28
32 | Fc1cccc(CN2CCN3CCCC3C2C2CCCCC2)c1 (centres undefined) | -32
33 | CCn1c(CSCc2ccc(Cl)cc2)n[nH]c1=S | -14
34 | COc1ccc(NC(=O)/C=C2\SC(=O)NC2=O)cc1 | 8
35 | O=C(CSc1ncnc2ccccc12)Nc1ccc2c(c1)OCCO2 | -17
36 | C=CCn1c(SCC(=O)OCC)nc2cc(C(=O)NCc3ccco3)ccc2c1=O | -25
37 | CC(=O)Nc1nc(C)c(C(C)(C)C)s1 | 2
38 | CC1CCCN(C(=O)CN2CCN(C(=O)c3ccco3)CC2)C1 (centres undefined) | -12
39 | O=C(O)c1ccc(CNCc2ccc(Cl)cc2)cc1 | -23
40 | Cc1cc(Cl)ccc1OCC(=O)N/N=C/c1ccc(OC2OC(CO)C(O)C(O)C2O)cc1 (centres undefined) | -11
41 | Cc1ccc(-c2nc(CS(=O)CC(=O)N3CCN(c4ccccc4)CC3)c(C)o2)cc1 (centres undefined) | -39
42 | C=C1CCN([C@@H](CC(C)C)C(=O)NCCCc2ccccc2)S(=O)(=O)c2ccccc21 | -14
43 | COc1ccccc1NC(=O)Nc1ccnn1C1CCN(C(=O)c2ccccn2)CC1 | -7
44 | O=C(O)Cc1ccc(NS(=O)(=O)c2ccccc2Cl)cc1 | -7
45 | CN(C)S(=O)(=O)c1cc(NC(=O)CN2CCc3ccccc32)ccc1Cl | 0

More results follow:
cpd | molecule | OX1R antag
46 | Cc1nc(C)n(C(=O)N(c2ccccc2)c2ccccc2)n1 | -12
47 | Cc1cc(-c2n[nH]c(=S)n2/N=C/c2ccc(Br)s2)n[nH]1 | -1
48 | COc1cc2ncnc(NCc3cccc(F)c3F)c2cc1OC | -33
49 | O=C(Nc1ccccc1C(=O)Nc1ccccn1)c1cccc([N+](=O)[O-])c1 | -21
50 | O=C1CCCN1c1ccc(S(=O)(=O)N2CCN(c3ccccn3)CC2)cc1 | -9
51 | O=C(Cn1nc(-c2ccc(F)cc2)ccc1=O)Nc1ccc(C(=O)NC2CC2)cc1 | 8
52 | Cc1nc(N2CCN(Cc3ccccc3)CC2)nc2c1C(=O)CCC2 | -27
53 | COC(=O)c1ccc(NC(=O)CN(C)Cc2cccc(F)c2)cc1 | -27
54 | CCOC(=O)c1oc2ccc(S(=O)(=O)n3nc(-c4cc(OC)c(OC)c(OC)c4)cc3N)cc2c1C | -9
55 | COc1ccccc1C1NC(=O)CS1 (centres undefined) | -10
56 | Cc1ccc(C(=O)Nc2ccc(NC(=O)c3cccs3)cc2)cc1[N+](=O)[O-] | -14
57 | CCC(C)(C)n1nnnc1C(c1cc2cc(C)cc(C)c2[nH]c1=O)N1CCCC1 (centres undefined) | -14
58 | Cc1ccc(/C=N/n2cc(-c3ccccc3)[nH]c2=S)s1 | -20
59 | COc1ccc(CCNC(=O)CCC(=O)Nc2nnc(C(C)C)s2)cc1OC | -23
60 | COc1ccc(/C=N/NC(=S)NCc2ccccc2)cc1OC | -6

Brought forward from above: 4 entries; new compounds follow.
cpd | molecule | OX1R antag
57 | CCC(C)(C)n1nnnc1C(c1cc2cc(C)cc(C)c2[nH]c1=O)N1CCCC1 (centres undefined) | -14
58 | Cc1ccc(/C=N/n2cc(-c3ccccc3)[nH]c2=S)s1 | -20
59 | COc1ccc(CCNC(=O)CCC(=O)Nc2nnc(C(C)C)s2)cc1OC | -23
60 | COc1ccc(/C=N/NC(=S)NCc2ccccc2)cc1OC | -6
61 | O=C(C1CCN(S(=O)(=O)c2cnc[nH]2)CC1)N1CCN(c2ncccn2)CC1 | -3
62 | O=C1C=CN(C(=O)Oc2ccccc2)CC1 | -15
63 | Cc1cccc(NC(=S)N2CCN(c3ccccn3)CC2)c1 | -9
64 | COCCOC(=O)c1sc2nc[nH]c(=O)c2c1C | -10
65 | COc1ccc(C(=O)Nc2ccccc2C(=O)NC(Cc2ccc(O)cc2)C(=O)NNC(=O)c2ccccc2Cl)cc1 (centres undefined) | 1
66 | O=C(CCC(=O)Nc1ccccc1Cl)NNC(=O)c1ccccc1[N+](=O)[O-] | -9
67 | O=C(CSc1ncnc2c1cnn2-c1ccccc1Cl)N1CCN(C(=O)c2ccco2)CC1 | -13
68 | Cn1nc(CC(=O)NC2CCCCC2)c2ccccc2c1=O | -14
69 | O=C(CCc1nc2ccccc2c(=O)[nH]1)NCc1ccco1 | -15
70 | COc1ccc(C(=O)COC(=O)CN2CC(=O)Oc3ccccc32)cc1Br | -22
71 | Cc1cccc2nc3c(nc12)-c1ccccc1C3=O | -12
72 | COc1cccc2cc(C(=O)Nc3cccc(C)n3)c(=O)oc12 | -4
73 | O=C(CSc1nnc(NC(=O)C2CCC2)s1)Nc1ccccc1 | -19
74 | CCOC(=O)c1c(C)[nH]c(C(=O)CN2C(=O)C(=O)N(CC(C)C)C2=O)c1C | -24
75 | Cc1ccc(C)c(S(=O)(=O)NCc2ccc(C(=O)N3CCN(C)CC3)cc2)c1 | -20

Next section.
cpd | molecule | OX1R antag
76 | CCOc1cc(/C=N/O)cc(Br)c1OCc1ccc(Cl)cc1 | -13
77 | Cc1ccc(C(C)(C)C)cc1S(=O)(=O)Nc1nc2ccccc2nc1Cl | -26
78 | CCn1nnc(-c2ccccc2NC(=O)C(F)(F)F)n1 | -9
79 | C=CCn1c(=O)/c(=C2/Sc3ccccc3N2CC)s/c1=C1/C(=O)NN=C1C | 7
80 | Cc1ccc(-c2csc3ncnc(NCCC(=O)O)c23)cc1C | -30
81 | Cc1ccc2c(c1)C(=O)CC1(CCCCCC1)O2 | 10
82 | C=CCn1c(C)csc1=Nc1ccc(C(=O)O)cc1 | -3
83 | NCCCC[C@@H](C(=O)N1CCNCC1)n1cc(CN)nn1 | 0
84 | C=C(C)CN(CC)c1nc(N)c(C#N)c(CC#N)c1C#N | -24
85 | CN(C)CCNCc1ccc(OC2CCCC2)cc1 | -6
86 | COc1ccccc1C1NC(=O)NC(C)=C1C(C)=O (centres undefined) | -17
87 | COc1ccc(S(=O)(=O)NCC2CCCN(Cc3cccnc3)C2)cc1 (centres undefined) | -15
88 | S=C(Nc1ccc(Cl)cc1)N1CCCCC1 | -29
89 | COC(=O)c1ccc(OCC(=O)c2ccc(O)cc2O)cc1 | 13
90 | N/C(=N\OCc1ccccc1)c1nonc1N | 12

Three entries out of the list above, sorted by the value under OX1R antag, descending:
no. | SMILES | OX1R antag
85 | CN(C)CCNCc1ccc(OC2CCCC2)cc1 | -6
76 | CCOc1cc(/C=N/O)cc(Br)c1OCc1ccc(Cl)cc1 | -13
80 | Cc1ccc(-c2csc3ncnc(NCCC(=O)O)c23)cc1C | -30

Going on with the list.
cpd | molecule | OX1R antag
91 | CCOC(=O)CNC(=O)c1sc(NC(=O)c2ccccc2F)nc1C | -10
92 | Cc1cccc(CCN(CC(=O)NC(C)(C)C)C(=O)c2csnn2)c1 | -23
93 | COc1ccc(OC)c(NC(=O)CCC(=O)Nc2nnc(C(C)C)s2)c1 | -22
94 | CCCC(=O)N(c1ccc(C(=O)O)cc1)c1nc(-c2ccccc2)c(C)s1 | -11
95 | Cc1cccc(C)c1NC(=S)N/N=C1\CC2CC=CC12 (centres undefined) | -17
96 | O=C(O)Cc1ccc(-n2cccc2)cc1 | 6
97 | CCCN1Cc2cccc(C(=O)NC(CC(=O)OCC)c3ccc(C)cc3)c2C1=O (centres undefined) | -70
98 | CN(C(=O)c1ccco1)c1nc(-c2ccc(F)cc2)cs1 | -3
99 | O=C(COc1ccc(Br)cc1Cl)NC(=O)Nc1ccc2c(c1)OCCO2 | -10
100 | O=c1[nH]c2ccccc2c2ccccc12 | -7
101 | COc1cccc(/C=N/Nc2nn3cnnc3c3ccccc23)c1 | -16
102 | CCOc1cc2nc(-c3ccc(OC)c(OC)c3)nc(N3CCOCC3)c2cc1OC | -23
103 | CN(C)Cc1cn(CCC(=O)O)c2ccccc12 | -9
104 | CC(C)Oc1ccc(CCNC(=O)C2CCC(=O)N(C3CCCCCC3)C2)cc1 (centres undefined) | -35
105 | CCOc1ccc(C(=O)CSc2nnc3ccccn23)cc1 | -8

More structures.
cpd | molecule | OX1R antag
106 | Cc1c(C)[n+](=O)c(-c2ccc(Br)cc2)c(C)n1[O-] | -9
107 | O=C(NCc1cccnc1)c1ccccc1[N+](=O)[O-] | -4
108 | COc1cc(CC(=O)NCC2COc3ccccc3O2)cc(OC)c1OC (centres undefined) | -19
109 | COc1nc(-c2ccccc2)c2c(c1C#N)CC(C)(C)OC2 | -29
110 | O=C(CC1(O)C(=O)Nc2ccc(Br)cc21)c1ccc2c(c1)OCO2 (centres undefined) | -6
111 | COC(=O)C1=CN(c2ccc(OC)cc2)C=C(C(=O)OC)C1c1cccc(F)c1 | -35
112 | CCCN1CCN(CCCNC(=O)Cn2cc3c(n2)CCCC3)CC1 | -2
113 | CSc1nc(-c2ccc(C)cc2)nc(N)c1C#N | -2
114 | COc1ccccc1C(=O)NCc1ccncc1 | 0
115 | Cc1c(Cl)cccc1NC(=S)Nn1cnnc1 | -4
116 | CC(C)Nc1nc2cccnc2s1 | -5
117 | COc1cc(C(O)P(=O)(OCC(C)C)OCC(C)C)cc(OC)c1OC (centres undefined) | -16
118 | CCOCCCNC(=O)NC(=O)CN1CCN(S(=O)(=O)c2ccc3c(c2)OCCO3)CC1 | -7
119 | NC(=S)Nc1cc(Cl)cc(Cl)c1 | -6
120 | COc1ccccc1NC(=S)NC1CCCC1 | -15

Of the compounds above, four contain a cyano group:
cpd | molecule | OX1R antag
7 | CCCc1[nH]nc2c1C(CCC)C(C#N)=C(N)O2 (centres undefined) | -9
84 | C=C(C)CN(CC)c1nc(N)c(C#N)c(CC#N)c1C#N | -24
109 | COc1nc(-c2ccccc2)c2c(c1C#N)CC(C)(C)OC2 | -29
113 | CSc1nc(-c2ccc(C)cc2)nc(N)c1C#N | -2

Carrying on:
cpd | molecule | OX1R antag
121 | COC(=O)c1onc(-c2c(Cl)cccc2Cl)c1C(=O)OC | -23
122 | O=C(CSc1nnc(C23CC4CC(CC(C4)C2)C3)o1)Nc1ccc(N2CCOCC2)c(Cl)c1 | 3
123 | Cc1nnsc1C(=O)NNC(=O)c1ccc(C(F)(F)F)cc1 | 4
124 | Cn1c(-c2ccccc2[N+](=O)[O-])[n+](C)c2ccccc21 | -9
125 | COCCNC(=O)c1onc(CSc2cc(C)ccc2C)c1C(=O)O | -11
126 | CCOC(=O)C1=C(C)NC(C)=C(C(=O)OCC)C1c1cc(N)ccc1OC(F)F | -15
127 | CCN1CCN(CC2COc3ccccc3O2)CC1 (centres undefined) | -25
128 | CCc1ccc(N2C(=O)Nc3ccc(Br)cc3C2(O)C(=O)NCCN(C)C)cc1 (centres undefined) | -7
129 | O=C(NC(=S)Nc1cc(C(F)(F)F)ccc1N1CCOCC1)c1sc2ccccc2c1Cl | -10
130 | COc1ccc(S(=O)(=O)Nc2ccccc2OC)cc1NC(=O)Cc1cccs1 | -15
131 | CCOc1ccc(C(=O)OC(C)CN2CCCCC2)cc1 (centres undefined) | -11
132 | CCCC[n+]1ccn(-c2nc3ccccc3nc2[N-]S(=O)(=O)c2ccc(Cl)cc2)c1 | -20
133 | CCNc1nc(ON=C(C)C)nc(N(C)C)n1 | -13
134 | O=C(O)C1CCC(=O)N1C(=O)OCc1ccccc1 (centres undefined) | -4

This is a subset; most or all hits stand in other tables.
